CtBP-E1A inh – qHTS Assay for Inhibitors of the CtBP/E1A Interaction; CtBP / adenovirus E1A interaction (AlphaScreen); AlphaScreen GST-E1A/His-CtBP binding, 1536-well; stronger effect = lower value; control for the full effect not named in the record; activity change, % (no concentration beside the values); actives 0.49% (n = 340,000); AID 651724, 2012; in the data active means activity change below about -65%; inconclusive means about -30% to -65%; inactive means above about -30%; also: % is scaled to controls: 0 for no effect and ±100 for the full control effect; compound concentration not given in the record
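AlphaScreen with 125 nM GST-E1A and 125 nM His-CtBP (5X stocks) in Tris pH 8.0, 300 mM NaCl, BSA, Tween 20, TCEP. Compounds preincubated 2 h at 37 deg C, then glutathione donor/nickel acceptor beads added for 1 h at 37 deg C in dark.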
Six1-Eya2 inh – qHTS Assay for Inhibitors of the Six1/Eya2 Interaction. AlphaScreen GST-Six1/His-Eya2 binding, biochemical; stronger effect = lower value; control for the full effect not named in the record. Homeobox protein SIX1 (Homo sapiens) + Protein phosphatase EYA2 (Homo sapiens), …. activity change, % (test concentration not listed). AID 651725, 2012. actives 0.56% (n = 360,000); in the data active = activity change below about -65%; inconclusive = about -30% to -65%; inactive = above about -30%; also: % is scaled to controls: 0 for no effect and ±100 for the full control effect; compound concentration not given in the record
Target sequence (O00167 whole entry, looked up): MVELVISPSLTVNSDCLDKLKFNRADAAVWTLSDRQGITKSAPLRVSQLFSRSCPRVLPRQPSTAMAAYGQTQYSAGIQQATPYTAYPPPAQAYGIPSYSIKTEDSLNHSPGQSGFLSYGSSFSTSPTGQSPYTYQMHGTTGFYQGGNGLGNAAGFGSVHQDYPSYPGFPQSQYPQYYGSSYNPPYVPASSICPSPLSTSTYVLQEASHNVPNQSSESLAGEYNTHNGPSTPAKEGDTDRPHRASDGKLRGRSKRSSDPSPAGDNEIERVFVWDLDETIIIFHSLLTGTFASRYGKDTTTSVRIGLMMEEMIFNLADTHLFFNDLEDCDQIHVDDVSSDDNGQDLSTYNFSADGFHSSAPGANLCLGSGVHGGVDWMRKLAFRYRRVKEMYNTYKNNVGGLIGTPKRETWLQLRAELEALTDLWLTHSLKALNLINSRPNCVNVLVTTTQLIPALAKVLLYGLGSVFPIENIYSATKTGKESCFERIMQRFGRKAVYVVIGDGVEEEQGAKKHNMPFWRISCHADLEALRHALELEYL
Target sequence (Q15475 whole entry, looked up): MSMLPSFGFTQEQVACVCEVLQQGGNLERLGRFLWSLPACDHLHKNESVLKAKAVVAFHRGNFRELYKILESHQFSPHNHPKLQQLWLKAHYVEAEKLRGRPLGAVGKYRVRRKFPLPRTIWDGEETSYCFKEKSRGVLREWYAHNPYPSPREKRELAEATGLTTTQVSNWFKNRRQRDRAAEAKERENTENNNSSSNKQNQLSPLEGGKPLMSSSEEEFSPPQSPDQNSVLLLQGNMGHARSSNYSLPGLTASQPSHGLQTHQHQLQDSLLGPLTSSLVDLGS
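AlphaScreen with GST-Six1 and His-Eya2 (5X mix: 250 nM and 500 nM), glutathione donor and nickel acceptor beads; buffer 50 mM Tris pH 8.0, 300 mM NaCl, 1 mM TCEP; 1 h at 37 C in the dark.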
TRPV1 PAM – HTS Assay for Compounds that Act as Potentiators of the Vanilloid Receptor 1. actives 0.02% (n = 320,000). Transient receptor potential cation channel subfamily V member 1 (Homo sapiens), Q8NER1. AID 540277, 2011. potentiation, % at 8.33 µM. TRPV1-expressing cells, Fluo-8 calcium influx, capsaicin EC20 potentiation; host cell line not named in the record; control for the full effect not named in the record; active means potentiation above 80%; inconclusive means 30% to 80%; inactive means below 30%; also: 0% is about no effect
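Fluo-8 calcium influx in TRPV1-expressing cells, kinetic read (ex 480/em 520 nm). Compound added and read 3 min for agonist activity, followed by capsaicin at EC20 final and 2 min further read for enhancement.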
TRPML1 blocker – qHTS for Inhibitors of the Human Mucolipin Transient Receptor Potential 1 (TRPML1) | TRPML1-inducible cells, Ca2+ dye fluorescence, FDSS; stronger effect = lower value; inhibition of EC80 agonist-evoked calcium signal | activity change, negative = inhibition, % (test concentration not listed) | actives 0.02% (n = 390,000); in the data active means activity change below about -50%; inconclusive means about -30% to -50%; inactive means above about -30%;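 also: stimulus is agonist 54-4 at its EC80 concentration; % is scaled to controls: 0 for no effect and ±100 for the full control effect; compound concentration not given in the record; the text of the record puts the active cut at -80%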
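Tet-induced TRPML1-DL cells loaded with Ca8 no-wash calcium dye were read kinetically on FDSS. Compound addition was followed by EC80 agonist 54-4 (4 uM final); inhibition was read over 110 s.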
D2 PAM – Beta-Arrestin HTS for Positive Allosteric Modulators of the Human D2 Dopamine Receptor: Potentiators; DiscoveRx D2 beta-arrestin cells, luminescence, 90 min; 100% = 57 uM dopamine signal; D(2) dopamine receptor (Homo sapiens), P14416; actives 0.23% (n = 360,000); potentiation, % (no concentration beside the values); active = potentiation of 50% or more; inconclusive = 30% to 50%; inactive = 30% or less;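 also: compound concentration not given in the record; tested on top of an EC20 dose of dopamine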
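PathHunter beta-arrestin assay in DiscoveRx D2 cells. Compounds were added with an EC20 of dopamine (50 nM final) for 90 min at 37 deg C. Luminescence was read 1 h after detection reagent, with 57 uM dopamine as the EC100 control.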
TRPML1 agonist – qHTS for Agonists of the Human Mucolipin Transient Receptor Potential 1 (TRPML1); TRPML1-expressing cells, Ca2+ dye fluorescence, FDSS; host cell line not named in the record; reference of the full effect not given here; activation, % (test concentration not listed); actives 0.12% (n = 410,000); in the data active = activation above about 50%; inconclusive = about 30% to 50%; inactive = below about 30%; also: 0% is about no effect; the text of the record puts the active cut at 80%
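Calcium fluorescence on an FDSS kinetic reader gave the read-out. Tet-induced TRPML1-DL cells were plated overnight, dye-loaded (Ca8 with quencher, 45-90 min, room temperature, dark), then read 110 s after compound addition, and again 110 s after 4uM final 54-4 (EC80).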
Active calls of the source: *; ? = inconclusive; . = not tested or not shown; & = joins results of further samples.

SMILES	CtBP-E1A inh	Six1-Eya2 inh	TRPV1 PAM	TRPML1 blocker	D2 PAM	TRPML1 agonist
CCCn1c(=O)c2ccccc2n2c(SCC(=O)c3ccc(CC)cc3)nnc12	6	0	17	0	-22	0.6
O=C(Nc1ccnn1C1CCN(C(=O)c2cc(Cl)ccc2F)CC1)C1CCOC1 (stereo not given)	3	3	9	1	-7	0.0
COc1cccc(-c2cc3nc4c(c(N5CCC6(CC5)OCCO6)n3n2)CCCC4)c1	15	-2	-19	-6	-7	0.1
O=C(CC(C(=O)O)c1c[nH]c2ccccc12)c1ccccc1 (stereo not given)	7	5	-5	1	-2	0.3
CCn1cc(C(=O)Nc2ccc(C)cc2[N+](=O)[O-])c(C)n1	1	-1	.	-15	3	-0.5
CN1CCN(C(=O)C2=C[C@H](c3ccc(C(F)(F)F)cc3)C[C@H](OCCCCO)O2)CC1	2	8	.	-5	-20	-0.2
CC1=C(C(=O)NC2CCCC(C)C2C)C2(CCCCC2)OC1=O (stereo not given)	0	10	26	3	-4	0.2
Cc1cccc(Nc2nc(N)c([N+](=O)[O-])c(N3CCC(C)CC3)n2)c1	-21	-13	10	20	-5	1.6
CC(C)(O)c1cc(=O)sc2nc3ccccc3n12	0	-3	7	-8	-7	0.1
O=C1c2cccc3c(N4CCCCC4)ccc(c23)C(=O)N1c1cccc(O)c1	42	31	7	-16	3	88*
CSc1nnc2c3ccccc3c3ccccc3c2n1	0	-4	6	15	-6	0.4
O=C(CS(=O)(=O)c1ccccc1)Nc1nnc(Cc2ccccc2)s1	1	-1	24	?	0	0.3
COc1ccc(OC)c(C2NC(=O)CCC2[N+](=O)[O-])c1 (stereo not given)	0	1	15	-5	-5	0.0
CC(C)Cc1cc(C(=O)Nc2sc3c(c2C#N)CCCC3)no1	0	7	-4	-5	-5	0.9
C/C(=N\NC(=O)Cc1ccccc1)c1ccc(Cl)s1	-2	2	-3	2	-17	0.1
Cc1ccc(NC(=O)CSCC(=O)Nc2ccc(N3CCOCC3)c(Cl)c2)cc1	0	-4	-2	2	-8	-0.3
CCOC(=O)C1CCCN(c2c(NCCN(CC)c3ccccc3)c(=O)c2=O)C1 (stereo not given)	3	4	4	-16	-10	-0.9
Cc1ccc(CN2CCNC(=O)C2CC(=O)N(C)C2CCCCC2)o1 (stereo not given)	4	12	8	49	-3	0.1
COc1ccc([N+](=O)[O-])c(OC)c1C(=O)NC(=O)Nc1c(C)cccc1C	1	-7	4	21	-11	1.1
Cc1ccccc1NCc1nnc2n1CCCCC2	.	0	-4	-9	-7	1.0
CCOc1ccc(NC(=O)CSC2=NN3CCCC(=O)N=C3S2)cc1	3	3	9	-3	-2	-1.7
CCC(=O)N1CCNC(=O)C1CC(=O)Nc1ccc(C)c(Cl)c1 (stereo not given)	8	5	3	-2	-7	0.6
CCC(CC)c1nnc(NC(=O)Oc2ccccc2)s1	58	24	28	-15	1	0.0
O=C(CN1C(=O)c2ccccc2C1=O)Nc1cccc(O)c1	4	13	-4	-3	-6	-1.0
CCCCCC(=O)NC(=S)Nc1ccccc1C(=O)OC	6	-8	9	7	-8	0.4
COc1ccc(C2/C(=C(/O)c3ccc(C)cc3)C(=O)C(=O)N2CCCN2CCOCC2)cc1 (stereo not given)	.	7	-7	.	-9	.
O=C(O)C(NS(=O)(=O)c1ccc(F)cc1)c1ccccc1 (stereo not given)	13	-2	12	7	6	-0.9
Cc1cc(C)c(C(=O)/C=C/c2ccc(C(C)C)cc2)c(=O)[nH]1	-29	1	5	-4	-9	-0.4
O=S(=O)(c1ccc(OC(F)(F)F)cc1)N1CCCC(N2CCOCC2)C1 (stereo not given)	4	2	10	9	-1	-0.1
Cc1cc(C)n(-c2ccc(C(=O)Nc3ccccc3N3CCOCC3)cc2)n1	2	-3	2	-10	0	1.5
CNC(=S)NNC(=O)c1cccn(Cc2cccc(C(F)(F)F)c2)c1=O	-12	-23	0	1	-9	-1.3
O=C(OCCN1CCCCC1)c1ccccc1F	0	3	5	-3	-11	-0.2
Cc1ccc(Cc2c(-c3ccc(C)cc3)nc3c(C)cc(Br)cn23)cc1	3	-7	.	2	-7	-0.5
CCC(=O)c1ccc(N2CCN(C(=O)c3ccc(F)cc3)CC2)c(F)c1	11	-2	-10	-3	-2	0.5
O=C(Nc1ccccc1Br)c1ccc(N2CCCC2=O)cc1	6	-1	9	0	22	-0.6
O=C(N/N=C/c1ccc(F)c(F)c1)c1cc2c(s1)-c1ccccc1CC2	-1	5	7	8	-4	-0.7

2 entries from above, with two lines to a compound:
Screens in order – CtBP-E1A inh, Six1-Eya2 inh, TRPV1 PAM, TRPML1 blocker, D2 PAM, TRPML1 agonist
CCCCCC(=O)NC(=S)Nc1ccccc1C(=O)OC
→ 6, -8, 9, 7, -8, 0.4
COc1ccc(C2/C(=C(/O)c3ccc(C)cc3)C(=O)C(=O)N2CCCN2CCOCC2)cc1 (stereo not given)
→ ., 7, -7, ., -9, .

Next results
SMILES	CtBP-E1A inh	Six1-Eya2 inh	TRPV1 PAM	TRPML1 blocker	D2 PAM	TRPML1 agonist
O=C(Nc1ccc(S(=O)(=O)N2CCOCC2)cc1)c1cc([N+](=O)[O-])ccc1Cl	0	11	-8	-3	5	-0.3
O=C(NCc1cccnc1)C1CCN(C(=O)c2ccc(Cl)cc2Cl)CC1	-1	-2	-19	-5	-23	-0.6
Cc1ccccc1NC(=O)c1cn(-c2ccccc2)nc1-c1ccccc1	0	6	-4	4&11	1	3.1&2.7
Cc1ccc2cc(CN(C(=O)C3CCCO3)C3CCCCC3)c(=O)[nH]c2c1 (stereo not given)	7	1	-1	-10	11	3.1
CCNC(=O)CC1SC(=Nc2cccc(Cl)c2C)N(C)C1=O (stereo not given)	-6	10	11	-7	-15	-0.9
CCOc1ccc(-n2nnc3c(=O)n(CC(=O)NCc4ccco4)cnc32)cc1	-5	-2	-15	55	-5	1.2
CCc1ccc(N2CC(C(=O)Nc3ccccc3F)CC2=O)cc1 (stereo not given)	18	3	-3	3	6	1.5
O=C(Nc1nc(-c2ccccc2)c(-c2ccccc2)s1)c1ccc(S(=O)(=O)N2CCCCC2)cc1	8	6	-19	-1	-6	0.4
CNC(=O)/C(=C\C=C\c1ccccc1)NC(=O)c1ccc([N+](=O)[O-])cc1	-1	-12	4	18	-9	3.8
CC(C)C(C)NC(=O)Cn1cnc2c(oc3ccccc32)c1=O (stereo not given)	2	4	-4	-5	-1	-0.4
COc1ccccc1N(CC(=O)NC1CCCC1)S(=O)(=O)c1ccc(C)cc1	2	9	-6	18	-2	-0.9
COc1cc(NC(=O)CCN2CCN(C)CC2)cc(OC)c1	2	-7	-2	-17	3	0.0

A few values from above.
`O=C(Nc1ccc(S(=O)(=O)N2CCOCC2)cc1)c1cc([N+](=O)[O-])ccc1Cl` – TRPML1 agonist = -0.3
`Cc1ccccc1NC(=O)c1cn(-c2ccccc2)nc1-c1ccccc1` – TRPV1 PAM = -4
`CNC(=O)/C(=C\C=C\c1ccccc1)NC(=O)c1ccc([N+](=O)[O-])cc1` – TRPML1 blocker = 18

Continued:
SMILES	CtBP-E1A inh	Six1-Eya2 inh	TRPV1 PAM	TRPML1 blocker	D2 PAM	TRPML1 agonist
Oc1sc(C=Nc2ccccc2)c2ccccc12	18	16	-1	17	24	?
CC(C)(C)C1CCC(=O)N(CCOc2ccccc2)CC1 (stereo not given)	.	3	-13	17	1	0.1&-0.8
CCCCCCCCN1[C@@H](CC(=O)OC)c2cc(C(F)(F)F)ccc2S1(=O)=O	42	50	.	-14	-6	1.5&4.5
CC(Sc1nnc2ccccn12)C(=O)Nc1ccc(N2CCOCC2)cc1 (stereo not given)	-7	2	.	-7	5	0.7
Cc1ccsc1CNCc1cc(Cl)ccc1O	-5	6	?	-2	-13	-0.4
CCOc1ccc(N(CC(=O)Nc2nccs2)S(=O)(=O)c2c(C)noc2C)cc1	-6	-13	.	-2	-2	0.7
CC(C)c1cc(C(=O)NNC(=S)NC2CCCCC2)cs1	0	-7	-6	-22	-41	1.9
O=C(CSc1ccc(-c2ccco2)nn1)Nc1ccc(F)cc1F	-3	-9	14	32	24	1.2
COc1cccc(C(=O)NC2CCN(CC(=O)Nc3nccs3)CC2)c1	0	10	6	-12	-27	0.5
CC1CCN(C(=S)c2ccc3c(c2)OCO3)CC1	1	-7	6	25	-7	0.4
Nc1c2c(nc3ccccc13)CCCC2=O	8	5	5	19	-2	0.3
CN(C)CCNC(=O)C(C(=O)c1ccccc1)n1ccccc1=O (stereo not given)	3	4	15	4	-9	-0.6

In another format: seven of the compounds above
SMILES,CtBP-E1A inh,Six1-Eya2 inh,TRPV1 PAM,TRPML1 blocker,D2 PAM,TRPML1 agonist
CCCCCCCCN1[C@@H](CC(=O)OC)c2cc(C(F)(F)F)ccc2S1(=O)=O,42,50,.,-14,-6,1.5&4.5
CC(Sc1nnc2ccccn12)C(=O)Nc1ccc(N2CCOCC2)cc1 (stereo not given),-7,2,.,-7,5,0.7
Cc1ccsc1CNCc1cc(Cl)ccc1O,-5,6,?,-2,-13,-0.4
CCOc1ccc(N(CC(=O)Nc2nccs2)S(=O)(=O)c2c(C)noc2C)cc1,-6,-13,.,-2,-2,0.7
CC(C)c1cc(C(=O)NNC(=S)NC2CCCCC2)cs1,0,-7,-6,-22,-41,1.9
O=C(CSc1ccc(-c2ccco2)nn1)Nc1ccc(F)cc1F,-3,-9,14,32,24,1.2
COc1cccc(C(=O)NC2CCN(CC(=O)Nc3nccs3)CC2)c1,0,10,6,-12,-27,0.5

Continuation:
SMILES	CtBP-E1A inh	Six1-Eya2 inh	TRPV1 PAM	TRPML1 blocker	D2 PAM	TRPML1 agonist
CCOCCCNC(=O)c1cc2cc3cc(OC)ccc3nc2o1	?	-16	-8	-4	-8	0.5
COc1ccc(CCNC(=O)/C(C#N)=C/c2cccc(OCc3ccccc3)c2)cc1OC	-1	-26	3	-8	3	3.0
CC12CC3(C)CC(C)(C1)CC(C(=O)NC(=S)NC(C)(C)C)(C2)C3	.	8	17	35	-5	0.0
C[C@@H](C(=O)NCc1ccccc1)N1C(=O)C2CC=CCC2C1=O (stereo not given in full)	4	6	3	-1	3	0.1

Compound activity (PubChem)
